Screening data (PubChem)
FPR binding = FPR binders displacing fluorescent formyl peptide, primary screen, U937-FPR cells, fMLFK-FITC, flow cytometry (AID 362); U937-FPR cells, fMLFK-FITC displacement, flow cytometry; hits give high values; test concentration not given here; most inactive calls were filed without a number and no value below 0 was filed; inhibition, %; 4,300 tested, 1% active;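 active = inhibition of labelled peptide binding to the formyl peptide receptor of at least 65%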;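 also: plate controls were buffer control wells for no effect and unlabeled fMLFF blocking peptide for full effect; higher means less cell fluorescence so more probe displaced; part of the set was picked by virtual screening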
Active calls of the source: *; i = inactive. These rows are one share of the data, so the mix of outcomes need not match the whole.

SMILES | FPR binding
CCOC(=O)C1=NN(C(=O)c2ccc(Cl)cc2)C(O)(C(C)(C)C)C1 (centres undefined) | 5
CC(C)CC(NCCC(O)c1ccccc1)C(=O)O (centres undefined) | 10
O=C(O)C1CCC(CNS(=O)(=O)c2ccc3nc(-c4ccccc4)[nH]c3c2)CC1 (centres undefined) | 36
COc1c(OC(C)=O)ccc(C2Nc3ccc4ccccc4c3C3=C2C(=O)CC(C)(C)C3)c1[N+](=O)[O-] (centres undefined) | i
CCC(C)OC(=O)C1=C(C)NC2=C(C(=O)C(C(=O)OC)C(C)C2)C1c1ccc(C)o1 (centres undefined) | 21
O=C1NC(c2cccc(O)c2)C(C(=O)c2cccnc2)C(O)(C(F)(F)F)N1 (centres undefined) | i
CCOc1ccc2c(=O)c(Oc3ccccc3Br)c(C(F)(F)F)oc2c1 | i
CCc1cc2c(=O)c(Oc3ccccc3)c(C(F)(F)F)oc2cc1O | 71*
O=C(NCC(=O)N(Cc1cccs1)C1(C(=O)NC2CCCCC2)CCCCC1)c1ccccc1 | i
COc1cc(C(C2C(=O)CC(C)(C)CC2=O)C2C(=O)CC(C)(C)CC2=O)ccc1O | 19
CCOC(=O)C1=C(N)OC2=C(C(=O)CC(C)(C)C2)C1c1ccc(OCc2ccccc2)cc1 (centres undefined) | i
Cc1ccc(CNC(=O)CCCCCn2c(SCC(=O)NCc3ccco3)nc3ccsc3c2=O)cc1 | i
CCCCCn1c(SCC(=O)OCC)nc2cc(C(=O)N3CCC(C(N)=O)CC3)ccc2c1=O | i
CC1(C)CC(=O)C2=C(C1)NC(=O)NC2c1cccnc1 (centres undefined) | i
CC1CN(Cc2c(O)ccc3c(=O)c(-c4cccc5ccccc45)c(C(F)(F)F)oc23)CC(C)O1 (centres undefined) | i
CCOc1ccccc1NC(=O)C(CC(C)C)NS(=O)(=O)c1ccc2c(c1)CCN2C(=O)CC (centres undefined) | i
COC(=O)c1sc(-c2ccccc2)cc1NC(=O)c1ccc(S(=O)(=O)N2CC3(C)CC2CC(C)(C)C3)cc1 (centres undefined) | i
CC1CCC2(CC1)C(C#N)=C1SCCN1C(=O)C2C#N (centres undefined) | 5
O=C(COc1cccc(N2C(=O)C3C4CCC(C4)C3C2=O)c1)c1ccc(F)cc1 (centres undefined) | i
CC(C)(C)C(CCC(=O)O)CC(=O)O (centres undefined) | i
CCCOCCOC(=O)C1=C(C)NC2=C(C(=O)C(C(=O)OC)C(C)C2)C1c1ccc(OC)cc1 (centres undefined) | 18
CCCOC(=O)C1=C(C)NC2=C(C(=O)C(C(=O)OC)C(C)C2)C1c1ccccc1OCC (centres undefined) | 3
COC(=O)C1C(=O)C2=C(CC1C)NC(C)=C(C(=O)OC1CCCC1)C2c1ccccc1OC(C)C (centres undefined) | i
COc1cc2c(C(=O)NCc3ccccn3)cn(CC(C)C)c(=O)c2cc1OC | i
COC(=O)C1C(=O)C2=C(CC1C)NC(C)=C(C(=O)OCCOC(C)C)C2c1cccc(O)c1 (centres undefined) | i
CC(C)Cn1cc(C(=O)NCCCN2CCN(C)CC2)c2c3ccccc3n(C)c2c1=O | 1
CCOC(=O)C1=C(C)NC2=C(C(=O)C(C(=O)OC)C(C)C2)C1c1ccc2ccccc2c1 (centres undefined) | 8
CCOC(=O)CSc1nc2cc3c(cc2c(=O)n1CCCCCC(=O)NCc1ccc(OC)cc1)OCO3 | 5
Fc1ccccc1CNCCC(Cc1ccccc1)c1ccc2c(c1)OCO2 (centres undefined) | 10
CCOc1ccc(-n2cc(C(=O)N3CCCCCC3)c3cc(OC)c(OC)cc3c2=O)cc1 | 2
CCOC(=O)C1CCC(CN(Cc2ccccc2Cl)S(=O)(=O)c2ccc(F)c(C)c2)CC1 (centres undefined) | 2
CCOC(=O)COc1cc(OCC(=O)OCC)c2c3c(c(=O)oc2c1)CCC3 | i
CC1CC(C)CN(C(=O)c2cc3c(=O)[nH]c4ccccc4c3n2C)C1 (centres undefined) | i
CCOC(=O)C1=C(C(F)(F)F)Nc2nnnn2C1c1cc(OC)ccc1OC (centres undefined) | 12
Cc1c(OC(=O)c2cccs2)ccc2c3c(c(=O)oc12)CCCC3 | i
CCCCCOC(=O)C1=C(C)NC(=O)NC1c1ccc(OC)cc1 (centres undefined) | i
COc1cc(-n2c(=O)c3ccccc3n(Cc3cc(=O)n4cc(Cl)ccc4n3)c2=O)cc(OC)c1OC | i
COC(=O)C1C(=O)C2=C(CC1C)NC(C)=C(C(=O)OC1CCCCCC1)C2c1cccc(O)c1 (centres undefined) | 4
CCOc1c(Br)cc(C2C3=C(CC(C)(C)CC3=O)OC3=C2C(=O)CC(C)(C)C3)cc1OC | i
CCCCS(=O)(=O)N1CN(S(=O)(=O)CCCC)C2NC(=O)NC21 (centres undefined) | 4
CCN(Cc1ccccc1)Cc1c(O)ccc2c(=O)c(Oc3ccc(OC)cc3)c(C(F)(F)F)oc12 | i
Cc1cc(C2C(C#N)=C(N)N(c3ccccc3[N+](=O)[O-])C3=C2C(=O)CC(C)(C)C3)c(C)s1 (centres undefined) | i
CCN(C(=O)c1ccc(Cl)cc1)c1ccc(C(O)(C(=O)OC)C(F)(F)F)cc1 (centres undefined) | i
O=C1C2CCCCC2C(=O)N1c1ccc(N2CCCC(CO)C2)c([N+](=O)[O-])c1 (centres undefined) | i
CN1CCN(CCn2c(C(C)(C)C)cn3c4ccccc4nc23)CC1 | i
COc1ccc(Cl)cc1NC(=O)Cn1cc(S(=O)(=O)N2CCC(C)CC2)c2ccccc2c1=O | i
CCOc1ccc(C2C3=C(CC(C)(C)CC3=O)N(CC(=O)O)C3=C2C(=O)CC(C)(C)C3)cc1Cl | 17
O=C(c1ccccn1)N(Cc1ccco1)C1(C(=O)NC2CCCCC2)CCCCC1 | 19

Taken from the entries so far for reference:
SMILES | FPR binding
CCOC(=O)C1=NN(C(=O)c2ccc(Cl)cc2)C(O)(C(C)(C)C)C1 (centres undefined) | 5
CC(C)CC(NCCC(O)c1ccccc1)C(=O)O (centres undefined) | 10
O=C(O)C1CCC(CNS(=O)(=O)c2ccc3nc(-c4ccccc4)[nH]c3c2)CC1 (centres undefined) | 36
COc1c(OC(C)=O)ccc(C2Nc3ccc4ccccc4c3C3=C2C(=O)CC(C)(C)C3)c1[N+](=O)[O-] (centres undefined) | i
CCC(C)OC(=O)C1=C(C)NC2=C(C(=O)C(C(=O)OC)C(C)C2)C1c1ccc(C)o1 (centres undefined) | 21
O=C1NC(c2cccc(O)c2)C(C(=O)c2cccnc2)C(O)(C(F)(F)F)N1 (centres undefined) | i
CCOc1ccc2c(=O)c(Oc3ccccc3Br)c(C(F)(F)F)oc2c1 | i
CCc1cc2c(=O)c(Oc3ccccc3)c(C(F)(F)F)oc2cc1O | 71*
O=C(NCC(=O)N(Cc1cccs1)C1(C(=O)NC2CCCCC2)CCCCC1)c1ccccc1 | i
COc1cc(C(C2C(=O)CC(C)(C)CC2=O)C2C(=O)CC(C)(C)CC2=O)ccc1O | 19
CCOC(=O)C1=C(N)OC2=C(C(=O)CC(C)(C)C2)C1c1ccc(OCc2ccccc2)cc1 (centres undefined) | i
Cc1ccc(CNC(=O)CCCCCn2c(SCC(=O)NCc3ccco3)nc3ccsc3c2=O)cc1 | i
CCCCCn1c(SCC(=O)OCC)nc2cc(C(=O)N3CCC(C(N)=O)CC3)ccc2c1=O | i
CC1(C)CC(=O)C2=C(C1)NC(=O)NC2c1cccnc1 (centres undefined) | i
CC1CN(Cc2c(O)ccc3c(=O)c(-c4cccc5ccccc45)c(C(F)(F)F)oc23)CC(C)O1 (centres undefined) | i

Carrying on:
SMILES | FPR binding
CCCCCOC(=O)C1=C(C)NC(=O)NC1c1ccc2c(c1)OCO2 (centres undefined) | i
CN(C)Cc1c(O)ccc2c(=O)c(Oc3ccccc3F)c(C(F)(F)F)oc12 | i
COC(=O)C1C(=O)C2=C(CC1C)NC(C)=C(C(=O)OC(C)C)C2c1ccc(F)cc1 (centres undefined) | i
COc1ccccc1CNC(=O)c1cn(CC(C)C)c(=O)c2cc(OC)c(OC)cc12 | 26
Cn1c2ccccc2c2c(C(=O)N3CCN(c4cccc(Cl)c4)CC3)cn(C3CCCC3)c(=O)c21 | i
CCOC(=O)c1cc2c(=O)n3ccccc3nc2n(CC(C)C)c1=NC(C)=O | 8
CCOc1ccc(C2C(C(=O)OC3CC(C)CCC3C(C)C)=C(C)Nc3ncnn32)cc1OC (centres undefined) | 7
NS(=O)(=O)c1ccc(CCNC(=O)CSc2nc3ccsc3c(=O)n2CC2CCC(C(=O)O)CC2)cc1 (centres undefined) | i
CC(C)Cn1cc(C(=O)NCCCN2CCOCC2)c2c3ccccc3n(C)c2c1=O | i
COc1cc2c(C(=O)N3CCN(c4cc(Cl)ccc4C)CC3)cn(CC(C)C)c(=O)c2cc1OC | i
CCC(C)NC(=O)C(NS(=O)(=O)c1ccc2c(c1)CCN2C(C)=O)C(C)C (centres undefined) | i
COc1ccc(OC)c(/C=C2\CCCC3=C2Nc2ncnn2C3c2cc(OC)ccc2OC)c1 (centres undefined) | 1
O=C(O)c1ccc2c(c1)C1C=CCC1C(C(=O)O)N2 (centres undefined) | i
C=C(C)Cn1c(SCC(=O)O)nnc1-c1ccccc1 | 22
O=C(O)C1CCC(CN(Cc2ccc(F)cc2)S(=O)(=O)c2ccc([N+](=O)[O-])cc2)CC1 (centres undefined) | 1
CC(C)CC(NC(=O)C(Cc1ccccc1)NC(=O)C1CCCN1C(=O)OCc1ccccc1)C(=O)OC(C)(C)C (centres undefined) | 2
Cc1sc2ncn(CC(=O)NCc3ccc(F)cc3)c(=O)c2c1S(=O)(=O)N1CCC(C)CC1 | i
COc1ccc(CCNS(=O)(=O)c2ccc(F)c(C(=O)Nc3ccc(Cl)cc3C(F)(F)F)c2)cc1OC | 7
CCN1CCN(CCCNC(=O)c2cn(CC(C)C)c(=O)c3c2c2ccccc2n3C)CC1 | i
O=C(CSc1nc2ccccc2c(=O)n1CC1CCC(C(=O)NCc2ccco2)CC1)c1ccccc1 (centres undefined) | i
CC(=O)N1CCc2cc(S(=O)(=O)NC(C(=O)O)C(C)C)ccc21 (centres undefined) | i
CCC(C)C(NC(=O)C(CC(C)C)NC(=O)OC(C)(C)C)C(=O)NC(CCC(=O)OCc1ccccc1)C(N)=O (centres undefined) | i
COc1cc(C2C(C(=O)OC3CCCCC3)=C(C)NC3=C2C(=O)CC(c2ccccc2)C3)cc(Cl)c1O (centres undefined) | 13
CSc1nc(OCC(=O)c2ccc(Cl)cc2)c2c3c(sc2n1)CCCC3 | i

Rewritten field by field: entries from further up.
> COc1ccc(CCNS(=O)(=O)c2ccc(F)c(C(=O)Nc3ccc(Cl)cc3C(F)(F)F)c2)cc1OC
  FPR binding: 7

> O=C(CSc1nc2ccccc2c(=O)n1CC1CCC(C(=O)NCc2ccco2)CC1)c1ccccc1 (centres undefined)
  FPR binding: i

Continued.
SMILES | FPR binding
O=C(CSc1c2c(nc3ccccc13)CCCC2)NCCCN1CCOCC1 | i
CN(C)C(=O)COc1cc2oc(=O)c3c(c2cc1Cl)CCC3 | i
O=[N+]([O-])c1ccc2nonc2c1NC1CCCCC1 | i
CC1(C)CC(=O)C2=C(C1)N(c1ncn[nH]1)C(N)=C(C#N)C2c1cccnc1 (centres undefined) | i
COc1ccc(C)cc1C(=O)C1CC(C(=O)O)C(C)(C)C1C (centres undefined) | i
O=C(NCc1ccccc1)C1CCC(CNS(=O)(=O)c2ccc(Cl)cc2)CC1 (centres undefined) | 7
COc1cc2c(C(=O)NCCCN3CCCC3)cn(CC(C)C)c(=O)c2cc1OC | i
Cc1ccc(-c2nn(C)c(=O)c3ccccc23)cc1S(=O)(=O)NC1CCCCC1 | i
O=C1CSC(c2ccccc2[N+](=O)[O-])N1CC12CC3CC(CC(C3)C1)C2 (centres undefined) | i
COc1cccc(C2C(C(=O)OCC(C)C)=C(C)N=C3SCCC(=O)N32)c1 (centres undefined) | 8
CCOC(=O)C1CCC(CN(Cc2ccccc2C)S(=O)(=O)c2cccc(C(F)(F)F)c2)CC1 (centres undefined) | i
CC(=O)COc1cc(OCC(C)=O)c2c3c(c(=O)oc2c1)CCC3 | 14
CCCCCCOC(=O)C1=C(C)NC(=O)NC1c1ccc(O)cc1 (centres undefined) | i
CC1=C(C(=O)OCC(C)C)C(c2cc3c(cc2Cl)OCO3)C2=C(CC(c3ccccc3)CC2=O)N1 (centres undefined) | 60
CCOC(=O)CN1c2ccccc2C(C)(C)C12C=Cc1cc([N+](=O)[O-])cc(OC)c1O2 (centres undefined) | i
CCc1nc(-n2nnc3ccccc32)c2c3c(sc2n1)CCCC3 | i
CCOc1cc(C2C(C(=O)OC3CCCCC3)=C(C)NC3=C2C(=O)C(C(=O)OC)C(C)C3)ccc1O (centres undefined) | 5
COc1cc(C2C(=O)N(C3CCCCC3)CC(=O)N2C2CCCc3ccccc32)ccc1OC(C)C (centres undefined) | i
CCOC(=O)c1cc2c(=O)n3ccccc3nc2n(C2CCCCC2)c1=NC(=O)c1cc(OC)c(OC)c(OC)c1 | i
CCOc1ccc2c(c1)C(=C1SC(C(=O)OC)=C(C(=O)OC)S1)C(=S)C(C)(C)N2C(=O)CCC1CCCCC1 | i
CC(=O)N1CCc2cc(S(=O)(=O)NC3CCCCC3C)ccc21 (centres undefined) | i
CC1(C)CC2CC(C)(CN2c2ccc(N3C(=O)CCCC3=O)cc2[N+](=O)[O-])C1 (centres undefined) | i
CCOc1cc(C2C3=C(CC(C)(C)CC3=O)OC3=C2C(=O)CC(C)(C)C3)ccc1OCc1ccccc1 | 1
COC(=O)C1C(=O)C2=C(CC1C)NC(C)=C(C(=O)OC1CCCCCC1)C2c1cccc(F)c1 (centres undefined) | i
CCOC(=O)C(NC(=O)c1cccc(Cl)c1)(Nc1sc2c(c1C(N)=O)CCCC2)C(F)(F)F (centres undefined) | i
CCOc1ccc(NS(=O)(=O)c2ccc3c(c2)[C@H]2C=CC[C@H]2[C@@H](c2ccc([N+](=O)[O-])cc2)N3)cc1 | i
COc1ccc(NC2=CC(=O)CC(C)(C)C2)c(OC)c1 | i
